High-throughput results: PubChem BioAssay, several laboratories
PKD1 kinase inh = inhibitors of human PKD1 kinase, biochemical, fluorescence polarization; Serine/threonine-protein kinase D1 (Homo sapiens), Q15139; PKD1 kinase fluorescence polarization assay; inhibition, %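 (about 10 µM by stock and volumes)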; 0.056% of 200,000 active;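 active = inhibition of 50% or more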;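 note: controls were vehicle for no effect and a reference inhibitor for full effect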
Target sequence (Q15139 whole entry, looked up): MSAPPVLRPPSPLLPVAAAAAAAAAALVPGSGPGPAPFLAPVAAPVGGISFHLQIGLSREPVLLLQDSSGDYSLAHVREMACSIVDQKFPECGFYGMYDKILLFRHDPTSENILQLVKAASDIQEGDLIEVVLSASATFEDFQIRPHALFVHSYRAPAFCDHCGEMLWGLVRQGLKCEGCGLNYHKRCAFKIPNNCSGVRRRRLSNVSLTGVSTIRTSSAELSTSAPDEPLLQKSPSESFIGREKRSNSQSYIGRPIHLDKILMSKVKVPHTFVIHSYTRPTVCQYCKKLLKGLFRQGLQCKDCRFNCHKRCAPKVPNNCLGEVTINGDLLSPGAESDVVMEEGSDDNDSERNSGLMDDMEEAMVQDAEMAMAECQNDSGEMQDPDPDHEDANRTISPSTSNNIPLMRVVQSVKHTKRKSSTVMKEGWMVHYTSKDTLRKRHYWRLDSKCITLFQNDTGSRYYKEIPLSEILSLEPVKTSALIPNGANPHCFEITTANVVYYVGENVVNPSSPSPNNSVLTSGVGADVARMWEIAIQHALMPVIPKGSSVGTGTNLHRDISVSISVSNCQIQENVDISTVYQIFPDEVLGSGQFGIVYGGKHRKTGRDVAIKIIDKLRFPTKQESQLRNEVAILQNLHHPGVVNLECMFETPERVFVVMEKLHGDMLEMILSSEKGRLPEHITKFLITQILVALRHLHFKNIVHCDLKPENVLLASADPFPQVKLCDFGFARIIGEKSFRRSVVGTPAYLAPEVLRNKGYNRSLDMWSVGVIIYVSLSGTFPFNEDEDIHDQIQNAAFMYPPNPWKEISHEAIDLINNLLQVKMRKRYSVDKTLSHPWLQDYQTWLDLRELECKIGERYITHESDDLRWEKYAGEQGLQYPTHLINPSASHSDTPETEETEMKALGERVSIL
RGS16-Gao = modulators of RGS16 binding to Galphao, primary screen, biochemical, human proteins, multiplexed bead flow cytometry; bead-based flow cytometry RGS16-Galphao binding, fluorescence; actives lie on both sides; binding response (% of control), % at 10 µM; 0.38% of 220,000 active;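 active = below 25% or above 175%, edge rows of some plates excepted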;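 note: Galphao activated by GDP with aluminum fluoride before binding; 100% = wells without compound and 0% = beads without RGS; some results beyond the cut were filed as inactive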
GALR2 ag = GALR2 receptor agonists, primary screen, cell-based | AID 803, 2007 | 0.48% of 140,000 active | activation, %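 (tested at 5 µM)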 | Galanin receptor type 2 (Homo sapiens), O43603 | GALR2-expressing cells, agonist activation read-out;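 active = above mean plus 3 SD of all compounds, about 5% in these data, not always enough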;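 note: 0% = vehicle buffer wells and 100% = reference agonist at full effect; tested in CHO reporter cells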
HSV augment = enhancers of HSV replication in host cells, fold increase, host cell viability; HSV replication augmentation in cells; maximum fold increase; 0.005% of 220,000 active; AID 1956, 2009;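 active = peak rise of 1.5-fold or more in the series; tested in PC3 cells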;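 note: first round at 10 µM; read as green reporter fluorescence; hits show the peak of a series up to 25 µM; 1 = signal of infected wells without compound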
INS promoter inh = inhibitors of insulin promoter-driven GFP, primary screen, imaging, TRM-6 cells (human fetal islet line), eGFP reporter, cell count; reporter expression induced with tamoxifen; inhibition, % at 2 µM; 0.9% of 130,000 active; AID 1273, 2008;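 active = inhibition above the mean plus 3 SD, with well images judged a real hit on visual review, cut at about 60% in these data, passing the limit was not always enough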
INS promoter inh cell count = second read-out of INS promoter inh, no call of its own (marks repeat the call); normalized cell count, %; measured here: cell count, toxicity; reference of the scale not given here;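 cells exposed to compound for 48 h; stained nuclei by imaging scaled within each plate; lower means fewer cells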
HSV augment primary fold = recorded beside HSV augment, whose call it bears; fold increase; compound at 10 µM; measured here: primary screen fold increase 10 uM; tested in PC3 cells;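 GFP signal in the first replicate; 1 = infected wells without compound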
* = called active by the depositor; i = inactive; nt = no result given.

SMILES	PKD1 kinase inh	RGS16-Gao	GALR2 ag	HSV augment	HSV augment primary fold	INS promoter inh	INS promoter inh cell count
O=C(NC(=O)c1c(F)cccc1F)O/N=C1\CCCc2occc21	nt	107	nt	i	1.1	nt	nt
Cc1cc(C(=O)COC(=O)c2cccn2C)c(C)n1Cc1ccco1	1	97	nt	i	1	nt	nt
C#CCOCCOCCOCCNc1nc(N2CCN(C(=O)C([C@@H](C)CC)n3cc(C(N)Cc4ccc(O)cc4)nn3)CC2)nc(N2CCN(C(=O)[C@H](CCC(=O)O)n3cc(C(N)[C@H](C)CC)nn3)CC2)n1 (some centres not stated)	-2	99	nt	i	0.7	nt	nt
CN(c1ccc(OCC(=O)OCC(=O)Nc2cccc([N+](=O)[O-])c2)cc1)S(=O)(=O)c1ccc(F)cc1	2	91	nt	i	0.89	9	119
CCOC(=O)C1=C(C)NC(C)=C(C(=O)OCC)C1C(=O)OCC(=O)N1CCc2ccccc21	8	92	-2.1	i	0.92	-22	64
CC[C@H](C)[C@H](NC(N)=O)C(=O)Nc1ccc(NC(C)=O)cc1	nt	102	nt	i	1.1	nt	nt
COc1ccc(NC(=O)C(=O)N2N=C3CCCCC3C2(O)C(F)(F)F)cc1 (configuration not stated)	-8	102	nt	i	0.87	nt	nt
CCCc1cc(=O)[nH]c(/N=C(/NC(=O)C(C)N2C(=O)c3ccccc3C2=O)Nc2ccccc2)n1 (configuration not stated)	-9	97	-0.2	i	0.96	-7	102
Cn1c(CCN2CCOCC2)nc2cc(NC(=O)COc3ccc(Cl)cc3)ccc21	-7	98	-0.7	i	0.76	nt	nt
COC(=O)c1c(C)nc2c(c(SC)nn2-c2ccccc2)c1N	-5	99	0.3	i	0.9	21	108
COc1ccc(C(=O)OCC(=O)Nc2ccc([N+](=O)[O-])cc2OC)c(O)c1	-2	103	nt	i	0.84	nt	nt
O=C(NCc1cccnc1)c1ccc(CN2CCc3ccccc3C2)cc1	-8	96	-0.1	nt	nt	-103	43
COc1ccc(C(NC(=O)c2c(F)c(F)c(F)c(F)c2F)c2ccccc2)cc1 (configuration not stated)	-3	102	-1.1	i	0.73	nt	nt
O=C(Nc1ccc(F)cc1F)c1ccc(COc2c(F)c(F)cc(F)c2F)o1	-8	106	-1.0	i	1	32	129
CC1=C(C#N)C(c2cccnc2)C2=C(N1)c1ccccc1C2=O (configuration not stated)	1	99	nt	i	0.97	3	83
COc1ccc(C(=O)Nc2ccc(S(=O)(=O)N3CCCCC3C)cc2)c(OC)c1OC (configuration not stated)	14	102	-1.2	i	0.79	nt	nt
CC(C)NC(=O)CC(=O)NN=C1CCCCC1	3	97	nt	i	1.4	nt	nt
COc1ccc(OC2C(=O)N(c3cc(C)ccc3C)C2c2ccc(OC)c(OC)c2)cc1 (configuration not stated)	-10	100	-1.6	i	0.93	21	102
COc1cc(NC(=O)COC(=O)/C=C/c2ccccc2Cl)cc(OC)c1	3	95	-0.9	i	0.96	-18	90
CCN(CC(=O)Nc1ccc2c(c1)OCCO2)Cc1cc(=O)oc2cc(C)c(C)cc12	-6	105	2.4	i	0.9	-8	146
Cc1ccc2cccc(S(=O)(=O)n3nc(C)cc3C)c2n1	-9	104	-1.2	i	0.85	3	115
O=C(NCCN1CCOCC1)c1ccc(CS(=O)(=O)c2ccc(Br)cc2)o1	-1	nt	-1.8	i	0.81	nt	nt
NCCCC[C@@H]1NC(=O)[C@H](CCC(=O)O)NC(=O)c2cc([N+](=O)[O-])cc(I)c2NCC[C@@H](C(N)=O)NC1=O	0	87	-1.0	i	0.71	-9	70
Cc1cccc(C)c1NC(=O)CSc1nc(-c2ccco2)cc(C(F)(F)F)n1	5	102	-0.8	i	0.84	38	105
CCOc1c(C=C(C#N)C#N)c2ccccc2n1CC	-5	102	-1.0	i	0.92	0	128
Cc1cccc(/C=N\NC(=O)c2sccc2-n2cccc2)c1	4	96	-2.5	i	0.86	30	86
CCCCN=C(N)/C(C(=O)OCC)=C(\O)c1ccc(OC)cc1	6	103	-1.2	i	0.94	43	52
CCc1cc([N+](=O)[O-])cc(CC)c1N	-5	105	-1.9	i	0.86	19	92
CCCCN(C)CCn1c(=S)[nH]c2cc(OCC)c(OCC)cc2c1=O	-8	99	nt	i	0.96	0	117
O=C(/C=C/c1ccccc1)N(Cc1cccs1)C1CCS(=O)(=O)C1 (configuration not stated)	nt	135	nt	i	0.99	nt	nt
COC(=O)C1=C(C)Nc2sc(C(N)=O)c(N)c2C1c1ccncc1 (configuration not stated)	10	112	-0.3	i	0.96	-46	98
Cc1cc(=O)oc2c1c(C)nn2-c1ccc(Cl)cc1	-9	104	nt	i	1.1	nt	nt
O=C(Nc1ccc(Cl)cc1)C(c1ccccc1)N1CCOCC1 (configuration not stated)	3	98	nt	i	1.1	-21	100
COC(=O)C1=C(C)OC(N)=C(C#N)C1c1cccnc1 (configuration not stated)	-3	93	-2.4	i	1	-31	99
C=CCOC(=O)Nc1c(C(=O)OC)[nH]c2ccccc12	0	111	-2.3	i	1.2	45	82
CCOC(=O)C1(CCCc2ccccc2)CCN(C(=O)CCc2cnn(C)c2)CC1	-8	98	nt	i	0.94	nt	nt
Cc1cc(C)n2ncc(C(=O)NC3CCCCC3)c2n1	-3	111	nt	i	0.87	-5	95
Cc1ccc(CONC(=O)c2ccc(OC(F)F)cc2)cc1	4	99	nt	i	0.97	50	86
COc1ccc(NC(=O)C2CCC(C(C)(C)C)CC2)cc1S(=O)(=O)N1CCCCC1 (configuration not stated)	1	110	0.1	i	1	-33	97
CCOC(=O)c1c(NC(=O)CSc2nnnn2C)sc(C(=O)N(C)C)c1C	-3	99	nt	i	0.88	nt	nt
CCOC(=O)COc1cc2c3c(c(=O)oc2cc1C)CCCC3	-6	102	-1.6	i	1	41	117
CC[C@H](C)[C@H](NC(N)=O)C(=O)Nc1ccc(OC)c(Cl)c1	-3	115	nt	i	0.81	-38	181
Cc1cccc(-n2cc(CNCCc3nc(C)cc(C)n3)c(-c3cccc(F)c3)n2)c1	nt	92	nt	i	0.64	nt	nt
Cc1nn(Cc2ccc(Cl)cc2Cl)c(C)c1NC(=O)CCl	-4	100	0.4	i	0.76	-110	64
COc1ccc(S(=O)(=O)Cc2ccc(C(=O)NCCCN(C)c3ccccc3)o2)cc1	9	44	-0.2	i	0.93	nt	nt
Cc1ccc(NC(=O)C2=CCN(S(=O)(=O)c3ccc(F)cc3)CC2)c(C)c1	-2	106	-0.2	nt	nt	-32	97
CCOCCCNS(=O)(=O)Cc1ccccc1	-5	93	-2.0	i	0.84	4	90
CCOC(CCn1c(SCC(=O)Nc2cc(C)on2)nc2ccccc2c1=O)OCC	1	94	nt	i	0.94	nt	nt
COc1ccccc1CNN	3	101	nt	i	1	nt	nt
O=C1OCCC1Sc1nnc(-c2ccc(Cl)cc2)n1Cc1ccccc1 (configuration not stated)	-7	100	-0.8	i	0.89	nt	nt
O=C(O)CCC(=O)Nc1ccc(C(=O)OC2CCCCC2)cc1	-23	95	1.2	i	1	nt	nt
Cc1cc(C(C)(C)C)oc1C(=O)N(CC(=O)NC1CCCC1)c1cccc(C(F)(F)F)c1	-3	103	-4.5	i	1.1	16	111
COc1ccc(OC)c(C(=O)COC(=O)c2cccnc2Cl)c1	6	62	nt	i	0.92	0	54
COc1cc(-c2nc(-c3ccccc3)c(-c3ccc(F)cc3)[nH]2)cc2c1OCO2	-4	99	0.2	i	0.8	nt	nt
COc1ccc(S(=O)(=O)Nc2ccc(Oc3ncccn3)c(Cl)c2)cc1	-2	84	-1.2	i	0.99	0	120
Cc1ccc(CSCc2nnc(SCC(=O)N3CCN(c4ccccc4)CC3)n2C)cc1	1	103	-2.3	i	1	-24	98
COc1ccc(S(=O)(=O)N2CCC(C(=O)NCc3ccccn3)CC2)cc1Cl	-7	102	-2.6	i	1	-200	82
OC(COCc1cccs1)CN1CCN(c2cccc(Cl)c2)CC1 (configuration not stated)	-12	112	0.0	i	0.97	-16	105
COc1ccc(S(=O)(=O)Nc2nnc(C)s2)cc1	-5	102	-1.4	i	0.85	nt	nt
Cn1c(=O)n(CCCOc2ccc(Cl)cc2)c2ccccc21	-1	103	-1.5	i	0.99	-200	76
Following part:
SMILES	PKD1 kinase inh	RGS16-Gao	GALR2 ag	HSV augment	HSV augment primary fold	INS promoter inh	INS promoter inh cell count
Cc1ccc(CCNC(=O)c2nnn(-c3cc(C)cc(C)c3)c2N)cc1	-6	104	0.9	i	0.92	nt	nt
O=C(CCNc1ccc(Cc2ccncc2)cc1)c1cccc([N+](=O)[O-])c1	6	95	nt	i	0.97	nt	nt
Cn1nc([N+](=O)[O-])nc1S(C)(=O)=O	-4	97	nt	i	0.75	nt	nt
CCOC(=O)C1(CCOc2ccccc2)CCN(Cc2cccn2-c2ncccn2)CC1	-2	98	nt	i	0.93	nt	nt
Cc1c(Cl)c(C(=O)NNC(=S)Nc2ccc(F)cc2)nn1C	-3	102	nt	i	0.89	nt	nt
CCOC(=O)C1(CCCc2ccccc2)CCN(C(=O)Cn2nc(C)nc2C)CC1	nt	100	nt	i	1	nt	nt
O=C(/C(=C(\[O-])c1ccccc1)[n+]1ccc2ccccc2c1)c1ccccc1	8	108	-0.4	i	1.1	-3	94
COc1cc(CNC2CCCC2)cc(Cl)c1OCc1ccc(F)cc1	-11	102	0.3	i	0.77	-29	140
CN(C)c1cccc(C(=O)OCC(=O)NCC2CCCO2)c1 (configuration not stated)	0	104	-0.8	i	0.92	nt	nt
O=C(CSc1cccc(C(F)(F)F)c1)NCc1ccccc1	-9	113	-1.9	i	0.94	-81	77
COc1cc(-c2nc3c[n+](CC(=O)c4ccccc4)ccc3n2C)cc(OC)c1OC	-13	106	-0.8	i	0.9	19	87
O=C(NCc1ccc(-n2cccc2)cc1)c1cccc(F)c1	-3	105	nt	nt	nt	23	112
O=C(CN(C(=O)CCC(=O)Nc1nccs1)c1ccc2c(c1)OCCO2)NCc1ccco1	2	108	-0.4	i	0.95	22	78
CC(C)Nc1oc(-c2cccc3ccccc23)nc1C#N	-5	105	3.9	i	0.97	-7	111
CCOc1ccc(Br)cc1S(=O)(=O)NCc1ccncc1	-3	100	nt	i	0.96	nt	nt

Entries of single compounds, quoted from the list. Order of values: PKD1 kinase inh | RGS16-Gao | GALR2 ag | HSV augment | HSV augment primary fold | INS promoter inh | INS promoter inh cell count
Record of `CCCCN(C)CCn1c(=S)[nH]c2cc(OCC)c(OCC)cc2c1=O` → -8 | 99 | nt | i | 0.96 | 0 | 117
Record of `CCOC(=O)C1=C(C)NC(C)=C(C(=O)OCC)C1C(=O)OCC(=O)N1CCc2ccccc21` → 8 | 92 | -2.1 | i | 0.92 | -22 | 64
Record of `O=C(NCCN1CCOCC1)c1ccc(CS(=O)(=O)c2ccc(Br)cc2)o1` → -1 | nt | -1.8 | i | 0.81 | nt | nt

Other results:
SMILES	PKD1 kinase inh	RGS16-Gao	GALR2 ag	HSV augment	HSV augment primary fold	INS promoter inh	INS promoter inh cell count
COCCOC(=O)C1=C(C)OC(N)=C(C#N)C1c1cc2cccc(C)c2nc1Cl (configuration not stated)	6	99	nt	i	0.84	nt	nt
COc1ccc(NC(=O)c2cccc(-n3cnnn3)c2)cc1	7	94	0.8	i	0.8	nt	nt
O=C(Nc1ccc2c(c1)OCO2)N1CCN(c2ncc(C(F)(F)F)cc2Cl)CC1	-5	100	-2.2	i	0.98	-9	221
Cc1ccc(N2CC(c3nc4ccccc4n3C)CC2=O)cc1C (configuration not stated)	-30	106	-0.7	i	0.84	nt	nt
CN1CCN(Cc2c(O)ccc3c(=O)c(Oc4ccccc4Cl)c(C(F)(F)F)oc23)CC1	-8	100	-3.0	i	0.85	nt	nt
O=C(CC(C(=O)O)c1ccc(Cl)cc1)c1ccccc1 (configuration not stated)	-3	99	nt	i	0.99	nt	nt
Cc1ccc(CNC(=O)c2cn(C)c(=O)c3c2c2ccccc2n3C)o1	-6	100	-2.8	i	0.87	0	77
COC(=O)c1c(C)oc2ccc(N(C(=O)c3ccncc3)S(=O)(=O)c3ccc4ccccc4c3)cc12	-14	107	-0.3	i	0.79	nt	nt

Two of these compounds in another layout.
> CN1CCN(Cc2c(O)ccc3c(=O)c(Oc4ccccc4Cl)c(C(F)(F)F)oc23)CC1
  PKD1 kinase inh: -8	RGS16-Gao: 100	GALR2 ag: -3.0	HSV augment: i	HSV augment primary fold: 0.85	INS promoter inh: nt	INS promoter inh cell count: nt

> COCCOC(=O)C1=C(C)OC(N)=C(C#N)C1c1cc2cccc(C)c2nc1Cl (configuration not stated)
  PKD1 kinase inh: 6	RGS16-Gao: 99	GALR2 ag: nt	HSV augment: i	HSV augment primary fold: 0.84	INS promoter inh: nt	INS promoter inh cell count: nt

An unsorted share of the library. Share with any hit: about 1.3%.
